PrP 5UTR inh: inhibition of PrP 5' UTR reporter expression. AID 488862, 2010. inhibition, % (test concentration not listed). cell-based PrP 5' UTR mRNA reporter, plate reader. hit rate 0.35% among 340,000;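 active = every replicate at 50% or more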;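 note: 0 = median of the neutral control wells; tested in H4 reporter cells; numbers are from one replicate; inactives centre near -14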
Sa RN4220 lethal: growth inhibition of S. aureus RN4220, primary screen, OD600; AID 1259311, 2017; hit rate 0.33% among 330,000; 16 h; inhibition, % (concentration not given with the values);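 active = z-score of -3 or lower and OD600 up to 0.18 on both plates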;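 note: plate controls were untreated cells for no effect and reference antibiotic for full effect; stock transfer was 100 nL into about 80 µL; one replicate is shown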
BJeLR lethal: MLPCN primary cell-based screen for lethality selective to Ras in HRASV12 cells; BJeLR (HRASV12) viability, CellTiter-Glo ATP luminescence, 48 h; reference of the scale not given here; inhibition, % (test concentration not listed); hit rate 0.17% among 300,000; AID 1554, 2009;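 active = replicate mean above 50%; inconclusive = above 50% but judged a plate artefact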;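 note: 50 nL library stock added to about 25 µL; numbers are from one replicate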
ugtP null kill: growth inhibition of ugtP-null S. aureus, primary screen, RN4220 ugtP deletion, OD600; growth inhibition, % (no concentration beside the values); 16 h; some inactives read as strong as hits; hit rate 0.54% among 330,000;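 active = z-score under -3 and OD600 up to 0.15 on both plates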;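 note: plate controls were untreated wells for no effect and antibiotic for full effect; wells of about 80 µL received 100 nL stock; the first replicate is given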
Bead autofluor: counter-screen for toxin protease inhibitors: compound fluorescence; compound autofluorescence counterscreen, microsphere flow cytometry; active compounds read high; fluorescence intensity (test concentration not listed); hit rate 3.1% among 360,000; AID 624483;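 active = at least 3 SD above the mean of all compounds, about 16000 in these data; inconclusive = too few beads counted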;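 note: 100 nL of 1 mM stock went into each well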
Mtb hypoxia inh: PubChem AID 1159583. M. tuberculosis hypoxia-regulated fluorescent reporter, fluorescence. fluorescence inhibition, % (test concentration not listed). hit rate 0.1% among 300,000;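 active = 35 to 45% if threefold the growth effect, above 45% if 1.5-fold the growth effect; inactive = the rest, general growth blockers included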;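 note: wells of about 50 µL received 100 nL stock; 0% = vehicle wells and 100% = reference inhibitor wells; whole bacteria with a GFP reporter of the hypoxia response; strong numbers were not always called active; many hits fall short of the cut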
Mtb hypoxia inh growth: recorded beside Mtb hypoxia inh, whose call it bears; growth inhibition, %; measured here: M. tuberculosis growth (absorbance);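 0% = vehicle and 100% = reference antibiotic; read after six days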
An asterisk follows results filed as active; ? = inconclusive; nt = no result given.

Values run as follows: PrP 5UTR inh, Sa RN4220 lethal, Mtb hypoxia inh, BJeLR lethal, Mtb hypoxia inh growth, Bead autofluor, ugtP null kill
- OC(CN1CCN(c2cccc(C(F)(F)F)c2)CC1)c1c[nH]c2ccccc12 (stereo unspecified)
  -19, -1.8, 5, -7, 10, 3286, -19
- COc1ccccc1-n1c(CNc2c(C)cccc2C)nnc1SCC(=O)N1CCOCC1
  -9, 15, 3, -2, 10, 3650, -1
- COc1ccccc1-c1cc(C(F)(F)F)nc(N2CCCC2)n1
  0, 5.2, 18, -17, 6, 3084, 86*
- COc1ccc(-n2nnnc2SCC(=O)Nc2ccc(OC)cc2OC)cc1
  -4, 1.9, 3, 7, -1, 3763, 0
- O=C(C1=C(O)C(=O)N(CCN2CCOCC2)C1c1cccc(O)c1)c1cc2ccccc2o1 (stereo unspecified)
  -15, -0.6, -4, 6, -11, 4754, 0
- Cc1nc(NC(=O)COc2ccc(Cl)cc2)sc1C(=O)N(C)C
  nt, 0.9, -3, -7, 5, nt, 6
- CCCOc1ccccc1/C=C1\SC(N2CCCCC2)=NC1=O
  -14, -2.0, 4, 16, 5, 4654, 6
- CC1Oc2ccccc2N(CC(=O)NC2CCCCC2)C1=O (stereo unspecified)
  4, 4.2, 9, 0, -1, 3180, 1
- Cc1cc(C)[n+](-c2ccc(C(C)C)cc2)c2[nH]c(=O)[nH]c(=O)c12
  -5, 5.4, -4, -4, -2, 8482, 3
- O=c1c2ccccc2nc(/C=C/c2cccc([N+](=O)[O-])c2)n1CCCO
  -10, nt, nt, 2, nt, 3786, nt
- CCCCn1c(N)c(N(CCC(C)C)C(=O)c2ccc(COc3ccccc3)o2)c(=O)[nH]c1=O
  -15, 2.2, 6, 1, -1, nt, 1
- O=C(/C=C/c1ccc(F)cc1)N1CCN(Cc2ccccc2)CC1
  nt, 4.8, 10, 1, 9, nt, 6
- Cc1ccc(S(=O)(=O)NCCCCCC(=O)NCCc2ccccc2)cc1
  -12, 2.5, 10, -4, 1, 3244, 4
- O=C(CCCc1ccccc1)NCCCc1ccccc1
  -47, 4.0, 6, -3, 2, 3079, 5
- Cc1ccccc1/C(N)=N/OC(=O)c1ccc(F)cc1
  -58, 9.7, 14, 1, 2, 4726, 6
- C/C(=N\NC(=S)NCc1ccccc1)c1ccccc1F
  -17, nt, nt, 3, nt, 4849, nt
- CCC(=O)c1ccc(OCC(=O)Nc2cccc(S(=O)(=O)N(C)c3ccccc3)c2)cc1
  -10, 1.2, -9, nt, 5, 3724, -11
- O=C1c2ccccc2[C@@H]2C[C@@H](O)[C@H](Nc3cccc(Cl)n3)CCN12
  -9, 4.4, 5, nt, 4, 3795, 4
- O=C(COc1ncnc2ccccc12)c1ccc(Cl)cc1
  -56, 2.3, 5, 1, -4, 5180, 1
- O=C(CN1CCN(Cc2ccc(F)cc2)CC1)NCCc1ccccc1
  -24, 5.1, 7, -2, 4, 3322, 10
- CC(=O)Nc1c(O)nc(SCC(=O)Nc2sc3c(c2C#N)CCCCCC3)[nH]c1=O
  -12, 2.8, 3, -1, 5, 19485*, 0
- COc1ccc(C(=O)NCC(C)NC(=O)c2ccc(OC)c(OC)c2)cc1OC (stereo unspecified)
  -17, 4.7, 15, -5, 8, ?, 16
- COc1ccc(CCNC(=O)C/C(C)=N/NC(=O)C2CCCCC2)cc1OC
  -4, nt, nt, 14, nt, 1988, nt
- Cc1ccc(S(=O)(=O)N2CCC(C(=O)N3CCC[C@H]3C(=O)NCc3ccccc3)CC2)cc1
  -19, 5.3, -5, 12, 5, 21009*, 1
- CS(=O)(=O)N(CC(=O)NCCSC1CCCCC1)c1ccc2c(c1)OCO2
  -4, -1.6, nt, 3, nt, 2114, -4
- O=C(NCN1C(=O)C2C3C=CC(C3)C2C1=O)OC1CCCCC1 (stereo unspecified)
  -18, 7.5, 4, -6, 4, 3425, 1
- O=C(Nc1ccccc1)c1ncoc1-c1ccc(Cl)cc1
  -5, 5.7, 4, -8, 12, 3277, 3
- COc1ccccc1C1CC(=O)Oc2cc(C)cc(C)c21 (stereo unspecified)
  -4, 4.2, 0, nt, 6, 2982, 6
- O=[N+]([O-])c1cccc2ncccc12
  -30, 6.3, 13, -4, 13, 4122, 12
- CCN(CC)C(=O)NC1CC2c3cccc4[nH]cc(c34)CC2N(C)C1 (stereo unspecified)
  nt, 4.1, 7, nt, 1, nt, 3

3 compounds already listed, sorted by number of heavy atoms, largest number first.
Values run as follows: PrP 5UTR inh, Sa RN4220 lethal, Mtb hypoxia inh, BJeLR lethal, Mtb hypoxia inh growth, Bead autofluor, ugtP null kill
- CCN(CC)C(=O)NC1CC2c3cccc4[nH]cc(c34)CC2N(C)C1 (stereo unspecified)
  nt, 4.1, 7, nt, 1, nt, 3
- O=C1c2ccccc2[C@@H]2C[C@@H](O)[C@H](Nc3cccc(Cl)n3)CCN12
  -9, 4.4, 5, nt, 4, 3795, 4
- COc1ccccc1C1CC(=O)Oc2cc(C)cc(C)c21 (stereo unspecified)
  -4, 4.2, 0, nt, 6, 2982, 6

A section taken from the entries so far:
Values run as follows: PrP 5UTR inh, Sa RN4220 lethal, Mtb hypoxia inh, BJeLR lethal, Mtb hypoxia inh growth, Bead autofluor, ugtP null kill
- OC(CN1CCN(c2cccc(C(F)(F)F)c2)CC1)c1c[nH]c2ccccc12 (stereo unspecified)
  -19, -1.8, 5, -7, 10, 3286, -19
- COc1ccccc1-n1c(CNc2c(C)cccc2C)nnc1SCC(=O)N1CCOCC1
  -9, 15, 3, -2, 10, 3650, -1
- COc1ccccc1-c1cc(C(F)(F)F)nc(N2CCCC2)n1
  0, 5.2, 18, -17, 6, 3084, 86*

(list continues)
Values run as follows: PrP 5UTR inh, Sa RN4220 lethal, Mtb hypoxia inh, BJeLR lethal, Mtb hypoxia inh growth, Bead autofluor, ugtP null kill
- O=C(NCCOC(=O)c1ccc(Cl)cc1)c1cccnc1
  0, 1.8, 3, 0, 8, 9472, 3
- COc1ccccc1NC(=O)C(C)N1C(=O)C2CCCCC2C1=O (stereo unspecified)
  -27, 3.0, 9, nt, 8, 3407, 6
- CN(c1ccccc1)c1ccc(/C=N/NC(=O)CC#N)cc1
  -8, nt, nt, 11, nt, 2409, nt
- Cc1ccc(S(=O)(=O)NCCNC(=O)C2CCCNC2=O)cc1 (stereo unspecified)
  -16, 1.5, nt, -3, nt, 4364, 6
- COc1ccc2c(c1)CCc1cc(C(=O)N3CCN(c4ccc(N5CCOCC5)nn4)CC3)sc1-2
  -13, 4.4, 8, -1, 17, 5463, -6
- COc1ccc(/C=C2/Sc3ccc(C(=O)N4CCOCC4)cc3NC2=O)cc1OC
  -8, 3.4, -1, 4, 3, 5084, -5
- Cc1ccc(-c2nc(-c3ccc(Cl)cc3)sc2CC(=O)O)c(C)c1
  -19, 10, 7, 1, 0, 4912, 15
- CCOc1ncccc1C(=O)N(C)CC(=O)Nc1ccc(C)cc1
  -31, 2.5, nt, 2, nt, 2633, 6
- O=C1c2cccnc2-c2ncccc21
  1, 17, -1, 0, -3, 3585, 15
- CC(C(=O)Nc1ccc2c(c1)OCO2)c1ccc([N+](=O)[O-])cc1 (stereo unspecified)
  -3, 3.5, -1, -3, 3, 1931, 3
- Cc1nc(S/C(=C/c2ccc(-c3cc(Cl)ccc3C)o2)C(=O)O)n[nH]1
  -8, 2.3, -1, -7, -3, 4437, -5
- Cc1cc(NC(=O)CCC(=O)N(c2cccc(F)c2)C(C(=O)NC2CCCC2)c2ccccc2)no1 (stereo unspecified)
  -3, 4.1, -3, -11, 3, 6638, 7
- CCOC(=O)C1=C(c2ccccc2)N=c2sc(=Cc3cc(OC)c(OC)c(OC)c3)c(=O)n2C1c1cccs1 (stereo unspecified)
  nt, 2.8, 3, nt, 12, 3180, 9
- Cc1cccc(NC(=O)Nc2ccc3c(c2)OCO3)n1
  -112, 3.2, 5, -4, 17, 3563, -10
- CC(C)CCn1nnnc1C(C(C)C)N1CCC(C(N)=O)CC1 (stereo unspecified)
  -8, 2.2, -8, 2, -1, ?, -1
- COc1ccc2c(c1)-c1nc(N)sc1CC2
  12, 4.0, -4, -5, -10, 4242, -4
- Cc1cccc(NC(=S)N2CCC(C(=O)c3ccc(F)cc3)CC2)c1C
  -18, -1.3, -12, -8, 2, 10613, -3
- Fc1ccc(CSc2nnc3ccc(-c4ccncc4)nn23)cc1
  -18, 2.3, 6, 1, 14, 4427, 8
- O=C1CC(N2CCOCC2)C(=O)N1CCN1C(=O)CC(N2CCOCC2)C1=O (stereo unspecified)
  7, 2.8, -4, -6, -8, 4142, 0
- Cc1ccc(S(=O)(=O)n2nc(OC(=O)c3ccco3)cc2N)cc1
  -22, -0.6, -3, 8, 2, 9872, -3
- COc1ccc(S(=O)(=O)N2CCNC(=O)CC2)cc1
  -22, -0.2, 5, 6, -1, 5034, -1
- OCCC1CN(Cc2cnc(-c3ccc(Cl)cc3)nc2)CCN1C1CCCC1 (stereo unspecified)
  12, 2.7, 5, 12, 11, 4788, 17
- CCN(CC)S(=O)(=O)c1ccc(C(=O)Oc2coc(CSc3nc(C)cc(C)n3)cc2=O)cc1
  -12, 0.2, 15, 7, -1, 2437, 10
- COc1ccc2cc(C3C(C#N)=C(N)OC(C)=C3C(C)=O)c(Cl)nc2c1 (stereo unspecified)
  -18, 0.9, 5, 8, -3, 4495, -2
- CCc1sc(C(=O)Nc2ncccc2C)cc1C
  -31, 3.1, 6, -9, -3, 5875, 0
- CCOC(=O)N1CCN(CCC(=O)Nc2ccc(OC)cc2OC)CC1
  -26, 2.9, 16, 15, 2, 6750, 8
- O=C(Nc1ccccc1)c1cccc(N2C(=O)CCC2=O)c1
  -33, 0.7, nt, 5, nt, 4639, -1
- Cc1ccn2cc(CCNS(=O)(=O)c3ccc4c(c3)CCCC4)nc2c1
  -18, 1.5, 8, -1, 10, 5028, 11
- CC(=O)NNc1ncnc2c1cnn2-c1ccc(C)cc1
  -20, 2.2, 11, 5, 5, 4221, 4
- Cc1ccc(-c2c(C(=O)NCc3ccccc3)oc(=O)c3ccccc23)cc1
  -32, 0.4, 13, 6, 6, 2499, 2
- C=C(C)CN(CC)C(=O)CC1C(=O)NCCN1CC(C)(C)C (stereo unspecified)
  -5, 2.3, 12, 12, 9, 5222, 0
- CCOC(=O)CN(C(=O)CN1CCC(n2nnc3cc(C)ccc32)CC1)c1ccccc1
  7, 0.7, nt, 2, nt, 4804, 5
- O=C(CCS(=O)(=O)c1ccccc1F)Nc1ccc(N2CCN(Cc3ccccc3)CC2)cc1
  -28, 3.2, 2, nt, 1, 9167, 2
- CC(C)c1ccc(NC(=O)C2C3C=CC4(O3)C2C(=O)N(CCN2CCOCC2)C4C(=O)NC2CCCCC2)cc1 (stereo unspecified)
  -37, 0.2, 16, 0, 3, 3823, 13
- COC(=O)Nc1ccc(S(=O)(=O)NC2CCCCC2)cc1
  -2, 2.7, -3, -5, 4, 5871, 1
- CN(C(=O)CSCC(=O)O)C1CCCCC1
  -8, 0.3, -2, -6, -2, 2482, 6
- COc1ccccc1OCCn1cc(C=NNC(N)=S)c2ccccc21
  nt, 7.3, 17, nt, 47, nt, 11
- COc1cc(/C=C/C(=O)NC(C)C)ccc1OCc1ccccc1
  0, 1.9, 1, -6, -6, 3072, 3
- NC(=O)c1sc2nc(-c3ccco3)ccc2c1N
  -16, -3.4, nt, -3, nt, 2510, 13
- O=C(CCN1CCN(c2ccccc2)CC1)Nc1cccc(Br)c1
  -16, 5.5, 4, -3, -2, 6477, 4
- CCOC(=O)C1=C(C)NC(C)=C(C(=O)OCC)C1C(=O)OCC(=O)N1CCOCC1
  -3, 3.6, 8, nt, 5, 3389, 6
- COc1cccc(Nc2nc(NCCO)c3ccccc3n2)c1
  -1, -14, 20, 6, -24, 2172, -13
- CCOn1c(=O)c(-c2ccc(OC)cc2)[n+]([O-])c2ccccc21
  2, -1.5, nt, -2, nt, 2575, -2
- O=C(CCc1ccccc1)Nc1nnc(-c2ccc3c(c2)CCCC3)o1
  -4, nt, nt, 5, nt, 4448, nt
- Cc1nn(C)c(C(=O)N/N=C/c2cccnc2)c1Cl
  14, nt, nt, 9, nt, 4551, nt
- CCN1C(C(=O)c2ccccc2)=C(Nc2ccccc2C)c2ccccc2S1(=O)=O
  -13, -1.4, 0, 16, 20, 1912, 81

Compound activity deposited in PubChem BioAssay by several laboratories.

An unsorted share of the library, and some 3.9% of all compounds hit somewhere here.
